# Assay outcomes from PubChem BioAssay.
# Arbovirus anti – antivirals against arbovirus infection; actives 0.37% (n = 200,000); arbovirus infection cell-based antiviral screen; inhibition, % at 10 µM;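 active means inhibition from about 30%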;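 further: bluetongue infection of BSR cells; cell survival read as ATP light after 72 h; 0% = infected wells without compound and 100% = uninfected wells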
# Mtb bLac sens – beta-lactam sensitization of Mtb H37Rv; M. tuberculosis H37Rv growth with meropenem, percent inhibition; hits of this screen are not shown here; inhibition, % at 25 µM; actives 0.27% (n = 330,000);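 active means about 74% or more and at least 40 points above the plate without the antibiotic, then above 30% in a dose series; inconclusive means first-round hits that could not be retested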;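 further: growth measured after seven days incubation then overnight dye step; 0% = bacteria only wells and 100% = bacteria with antibiotic; twin plates without the antibiotic show which effects depend on it; some results filed as inactive read as strong as hits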
# Mtb H37Rv – M. tuberculosis H37Rv growth inhibitors, H37Rv strain (AID 1626); M. tuberculosis H37Rv growth inhibition; higher % means a stronger effect; one-dose inhibition, % at 10 µM; IC50 in µM for titrated hits; actives 0.95% (n = 220,000);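 active means confirmed in a dose series; inconclusive means inhibition above 80% but not taken into the dose series; inactive means below 80% or under 30% at every dose of the series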;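 further: bacteria incubated seven days before Alamar blue readout; 0% = bacteria only wells and 100% = bacteria with antibiotic wells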
# RecA splice inh – Mtb RecA intein splicing inhibition | cell-free RecA intein splicing, fluorescence | P9WHJ3 | actives 0.75% (n = 290,000) | inhibition, %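 (about 9 µM by stock and volumes)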; in the data active means inhibition above about 30%; inconclusive means no clear call, values can overlap the other calls;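 further: 0% = vehicle wells and 100% = reference inhibitor control wells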
# Target sequence (P9WHJ3 whole entry, looked up, canonical isoform): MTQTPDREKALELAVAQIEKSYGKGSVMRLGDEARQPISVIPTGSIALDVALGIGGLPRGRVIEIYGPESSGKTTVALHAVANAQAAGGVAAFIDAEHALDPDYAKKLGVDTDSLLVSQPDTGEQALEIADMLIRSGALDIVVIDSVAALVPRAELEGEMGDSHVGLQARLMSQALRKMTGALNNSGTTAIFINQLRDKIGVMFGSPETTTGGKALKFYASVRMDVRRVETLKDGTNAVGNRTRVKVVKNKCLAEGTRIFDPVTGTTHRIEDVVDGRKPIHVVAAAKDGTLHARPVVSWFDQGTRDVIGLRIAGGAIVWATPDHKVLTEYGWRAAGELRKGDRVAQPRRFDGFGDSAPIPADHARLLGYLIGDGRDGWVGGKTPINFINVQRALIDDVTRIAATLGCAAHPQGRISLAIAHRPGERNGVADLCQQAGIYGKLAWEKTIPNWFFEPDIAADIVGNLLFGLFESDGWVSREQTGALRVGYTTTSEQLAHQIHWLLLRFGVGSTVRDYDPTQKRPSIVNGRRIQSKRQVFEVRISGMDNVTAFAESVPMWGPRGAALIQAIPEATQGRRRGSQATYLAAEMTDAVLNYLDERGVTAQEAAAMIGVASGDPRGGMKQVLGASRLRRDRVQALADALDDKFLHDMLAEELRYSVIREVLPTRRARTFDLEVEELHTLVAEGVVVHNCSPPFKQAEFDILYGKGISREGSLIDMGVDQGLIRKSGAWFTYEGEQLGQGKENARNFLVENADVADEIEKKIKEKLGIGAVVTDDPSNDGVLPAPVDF
# YopH PTP inh – YopH (Yersinia) phosphatase inhibition. inhibition, %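 (about 10 µM by stock and volumes)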. actives 0.16% (n = 140,000). fluorescence Ex485/Em525;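 active means inhibition of 50% or more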;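 further: controls were vehicle for no effect and minimum signal wells for full effect; inactives centre near -20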
# Arbovirus anti repeat – recorded beside Arbovirus anti, whose call it bears; inhibition, %; measured here: 10K subset replicate screen; many hits read low in the repeat;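 first of two repeat runs on a subset; 0% = infected and 100% = uninfected wells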
# Numbers without * were called inactive; ? = inconclusive; nt = no result given; & = joins results of further samples. This is a subset. The share of hits here may be higher or lower than overall.
SMILES,Arbovirus anti,Mtb bLac sens,Mtb H37Rv,RecA splice inh,YopH PTP inh,others
COc1ccc2[nH]c(C(=O)O)c(NS(=O)(=O)c3ccc(F)cc3)c2c1,nt,0,nt,0.6,nt,
O=C(C(=O)N1CCCC1)c1c[nH]c2ccccc12,nt,3,nt,-4.0,nt,
CCOc1ccc(CN(C)C(C)C(=O)NCc2ccccc2)cc1 (stereo unspecified),nt,0,nt,1.9,nt,
O=C(NCCSc1ccccc1)c1ccc(Br)cc1,-3,38,-6%,0.7,-26,
COc1cccc(NCc2cc(=O)oc3cc(-c4ccccc4)c(O)cc23)c1,12,6,7%,15,-3,
O=C(NCc1ccccn1)C(=O)N/N=C/c1ccc2c(c1)OCO2,8,2,4%,0.9,nt,
COc1ccc(NC(=O)c2cc(-c3ccc(C)o3)nc3ccccc23)cc1OC,-7,-16,9%,nt,-25,
Cc1cc(NC(=O)CSc2nnc(-c3ccncc3)n2C)n(-c2ccccc2)n1,nt,-10,-8%,1.5,nt,
CN(C)S(=O)(=O)c1cccc(C(=O)NCC(=O)NC2CCN(Cc3ccccc3)CC2)c1,nt,-1,nt,0.2,nt,
Cc1cc2[nH]ncc2cc1NC(N)=S,4,1,0%,-2.3,nt,
COC(=O)C(NC(=O)c1ccccc1C(=O)O)c1ccc2ccccc2c1 (stereo unspecified),nt,-4,nt,-2.3,nt,
Cc1ccc2nc(-c3cccnc3)cc(C(=O)Nc3ccc(F)cc3C)c2c1,-1,7,2%,-2.4,nt,
CCCNC(=O)NC(=O)CSc1nnc(-c2ccncc2)n1CC,0,3,-3%,1.2,-6,
Cc1cc(N)ccc1N1CCCC1,-10,-6,-3%,3.4,9,
O=C(Cc1ccc(Cl)cc1)Nc1cccc(C(=O)Nc2ccccc2C(=O)O)c1,nt,3,nt,5.0,nt,
O=C(Cc1csc(N2CCOCC2)n1)N/N=C/c1ccc(Cl)cc1Cl,-4,6,-7%,-0.5,-13,
CS(=O)(=O)N(CC(=O)Nc1ccc(S(=O)(=O)N2CCCC2)cc1)c1ccccc1,3,1,-2%,-0.2,nt,
CCOC(=O)COc1ccc(C(=O)Nc2cccc(Cl)c2C)cc1,10,-4,?,0.4,nt,
CN1OC(COC(=O)c2ccc(Cl)cc2)CC1c1ccccc1 (stereo unspecified),5,0,6%,2.2,-30,
NC(=O)c1ccccc1NC(=O)c1ccccc1Cl,nt,-1,5%,1.6,nt,
CCCCc1ccc(S(N)(=O)=O)cc1,1,9,6%,2.7,nt,
Cc1ccc2oc(=O)c3cc(C(=O)NCCCN4CCN(C)CC4)sc3c2c1,nt,1,nt,-2.0,nt,
CC(C)(C)c1nc(SCC(=O)Nc2ccc3c(c2)OCCO3)c2ccccc2n1,-2,12,-5%,-0.1,-22,
N#Cc1c(NC(=O)c2ccc(-c3ccccc3[N+](=O)[O-])o2)sc2c1CCCC2,-15,-2,4%,2.7,-12,
C/C(=N\NC(=O)c1ccc(Cl)c(Cl)c1)c1ccccn1,nt,98,nt,2.2,nt,
# (continued)
SMILES,Arbovirus anti,Mtb bLac sens,Mtb H37Rv,RecA splice inh,YopH PTP inh,others
CCc1ccc(OCC(=O)NNC(=O)CSc2nnc(-c3ccc(C)cc3)n2C)cc1,-3,-3,4%,-1.1,-25,
O=C(Cn1cnc([N+](=O)[O-])n1)c1ccc(O)c(O)c1,nt,-2,nt,-4.0,nt,
O=C(Nc1ccc(S(=O)(=O)N2CCOCC2)cc1)C1COc2ccccc2O1 (stereo unspecified),9,6,-6%,-1.1,-39,Arbovirus anti repeat=6
CCCN(C(=O)c1cc(CC)c(C)s1)c1c(N)n(Cc2ccccc2)c(=O)[nH]c1=O,nt,-4,nt,-2.0,nt,
Cc1ccc(OCCCCN2CCCCC2)c(C)c1,nt,0,nt,1.9,nt,
O=S(=O)(c1ccc(-c2ccccn2)s1)N1CCC2(CC1)OCCO2,nt,-5,4%,0.3,nt,
Cc1ccc(/C=N/NC(=O)COc2ccccc2-c2ccccc2)cc1,-36,-2,9%,-5.5,-9,
CCNc1nc(SC(C)C(=O)Nc2ccccc2)nc(N2CCOCC2)n1 (stereo unspecified),-7,-2,-1%,0.2,13,
CC1CCN(c2ccc(C=O)o2)CC1,-2,93,56µM*,-1.9,nt,
COc1ccc(C2NCCc3c2[nH]c2ccccc32)cc1CN1CCc2cc(OC)c(OC)cc2C1C (stereo unspecified),nt,nt,5%,-0.3,nt,
O=C(c1ccccc1)c1ccc(N2CCOCC2)c(NC(=O)c2ccco2)c1,-2,33,-5%,5.9,-20,
O=C(NCc1ccccc1)c1ccc(CNc2c(N3CCCC3)c(=O)c2=O)cc1,nt,-3,3%,-3.3,nt,
COc1cccc(CNc2ccc(S(N)(=O)=O)cc2)c1OC,9,0,-5%,1.1,-30,
COc1ccccc1Nc1nc(NCCCN(C)C)nc(N)c1[N+](=O)[O-],nt,1,2%,-1.7,nt,
Nc1ccc2c(C(F)(F)F)cc(C(F)(F)F)nc2n1,0,-1,-8%,-5.2,nt,
O=C1CC(c2ccccc2)CC(=O)C1CS(=O)(=O)c1ccccc1 (stereo unspecified),8,2,-6%,1.3,nt,
COc1ccc(Nc2ncnc3nc[nH]c23)cc1OC,-4,7,1%,4.0,22,
COc1cc(OC)nc(Oc2cc(/C=N/O)ccc2OC)n1,-12,-2,1%,0.2,nt,
O=C(NCCc1ccccc1)c1nccc2ccccc12,nt,-5,nt,-0.4,nt,
COC(=O)c1[nH]c2cccc(OC)c2c1NC(=O)CCN1CCSCC1,nt,-7,-9%,-4.7,nt,
O=C(C/C=N\OCc1ccc([N+](=O)[O-])cc1)Nc1ccc(F)cc1F,3,63,67%,-1.6,nt,
COc1cc(CC(=O)N2CCC(n3nccc3NC(=O)C3CC3)CC2)cc(OC)c1OC,nt,?,nt,2.0,nt,
O=S(=O)(c1ccc2oc3ccccc3c2c1)N1CCOCC1,7,-8,-2%,0.0,-11,
COCCNC(=O)c1cc2cc(Br)cc(Br)c2oc1=O,0,1,3%,-0.3,nt,
CC(C)NCC(O)c1ccc(O)c(O)c1 (stereo unspecified),nt,-1,nt,-6.2,nt,
# Following part:
SMILES,Arbovirus anti,Mtb bLac sens,Mtb H37Rv,RecA splice inh,YopH PTP inh,others
O=C(CCc1ccccc1)Nc1nn[nH]n1,-1,7,6%,-0.3,-3,
Cc1[nH]c2ccccc2c1C(=O)C(=O)NCCc1c[nH]c2ccccc12,nt,-10,nt,-1.5,nt,
CCOc1ccc(-n2c(C)nc3cc(C(=O)NCC4CCCO4)ccc32)cc1 (stereo unspecified),nt,8,nt,-4.3,nt,
COc1cccc(C(C(=O)NC(C)(C)C)N(CCc2ccccc2)C(=O)CCC(=O)Nc2cc(C)on2)c1OC (stereo unspecified),nt,-4,nt,-3.2,nt,
O=C(/C=C\Nc1ccc(Cl)cn1)c1ccc(Br)cc1,0,-8,5%,nt,nt,
Cc1ccc(S(=O)(=O)N(C)C)cc1NC(=O)c1cc(C(C)(C)C)nn1Cc1ccccc1,nt,-2,6%,5.2,nt,
Cc1ccnc(NS(=O)(=O)c2ccc(NC(=O)c3ccc(N4C(=O)CCC4=O)cc3)cc2)n1,9,-3,2%,-0.3,-25,
CC(NC(=O)CSc1ccccc1)c1ccccc1 (stereo unspecified),nt,-4,nt,-1.2,nt,
COc1ccc(C(C)=O)cc1CSc1nnnn1-c1ccc(O)cc1,nt,1,3%,1.3,nt,
COc1ccccc1NC(=O)NCc1ccc2c(c1)OCO2,-5,nt,4%,-1.4,9,
Cc1nc2ncnn2c(C)c1CCC(=O)NCc1ccc2c(c1)OCO2,10,?,-1%,-0.9,-53,
COCCCNC(=O)CC(NS(=O)(=O)c1ccc(C)cc1)c1ccco1 (stereo unspecified),1,-7,-5%,-0.3,-26,
CCOC(=O)C1=C(COC(=O)COc2cc(C)ccc2C)NC(=O)NC1C (stereo unspecified),nt,3,nt,-0.2,nt,
CC1CCC(NC(=O)c2cc3c(=O)n(C)c4ccccc4c3n2C)CC1 (stereo unspecified),-11,10,13%,-0.2,-37,Arbovirus anti repeat=-21
Cc1cc(=O)oc(C)c1C(=O)N1CCCc2ccccc21,-2,0,-5%,-1.2,2,
Cc1cccc(NC(=O)/C(C#N)=C\c2cccnc2)c1,-4,-1,-4%,3.3,-24,
CCOc1ccc(/C=C/C(=O)NCCc2ccc(OC)c(OC)c2)cc1,-3,4,8%,-2.3,-23,
Cc1ccc(S(=O)(=O)/C(C#N)=C/c2c(N3CCOCC3)nc3c(C)cccn3c2=O)cc1,nt,91,-2%,-0.4,nt,
Cc1ccc(OCCC(=O)Nc2ccccc2C(=O)N2CCCCC2)cc1,nt,2,nt,1.6,nt,
Cc1cc(Cl)ccc1NC(=S)NCC(C)C,2,-8,53%,1.1,9,
COC(=O)c1c(NC(=O)c2ccc(C)o2)sc2c1CCCCC2,5,nt,-3%,1.5,17,
COc1ccc(C(CNC(=O)c2ccccc2SC)N(C)C)cc1 (stereo unspecified),1,-6,9%,-0.1,nt,
COc1ccc(C(=O)Oc2ccc(-c3nnco3)cc2)cc1S(=O)(=O)N1CCOCC1,nt,-5,nt,4.6,nt,
N#Cc1c(C#N)c(-c2ccccc2)n(-c2ccc(C(=O)O)cc2)c1N,2,-12,-10%,-2.1,-44,
COCCCNC(=O)c1c[nH]c2ccc(S(=O)(=O)N(C)c3ccccc3C)cc2c1=O,nt,1,nt,0.2,nt,
# New compounds follow
SMILES,Arbovirus anti,Mtb bLac sens,Mtb H37Rv,RecA splice inh,YopH PTP inh,others
COc1ccc2[nH]cc(C=O)c2c1,3,-4,-1%,3.6,-38,
O=C(Nc1cccc(F)c1)C1CCN(C(=O)c2ccco2)CC1,nt,0,nt,-0.6,nt,
CC(=O)N1CCOc2cc(S(=O)(=O)N3CCN(c4ccccc4)CC3)c(Cl)cc21,nt,2,nt,1.0,nt,
Cc1ccc(N2CCN(c3ccc(NCc4nc5ccccc5n4C)cc3)CC2)cc1,-12,95,34%,-2.6,-19,
Brc1cccc(-c2nc3cccnc3nc2-c2cccc(Br)c2)c1,nt,8,nt,14,nt,
COc1ccc(Cl)cc1NC(=O)CN(C)C(=O)c1n[nH]c2ccccc12,nt,-10,nt,1.1,nt,
COC(=O)C1=C(CCc2ccccc2)NC(=O)NC1c1ccc([N+](=O)[O-])cc1 (stereo unspecified),nt,-1,-6%,0.3,nt,
CCN(c1ccccc1)S(=O)(=O)c1ccc(OC)c(N=N/C(C(=O)Nc2ccccc2)=C(/C)O)c1,-6,-8,-3%,0.7,nt,
O=C(O)C(O)c1ccccc1 (stereo unspecified),1,0&-5,-1%,-0.7,nt,
COc1cc(/C=C2\C(=O)NN(c3ccccc3)C2=O)cc([N+](=O)[O-])c1O,-33,13,-10%,-1.6,nt,
COc1ccc(Nc2nnc(C)c3ccccc23)cc1C(N)=O,-1,0,-13%,0.8,-41,
Cc1nn(-c2cc(Cl)ccc2Cl)c(C)c1C(=O)O,1,-1,12%,2.9,nt,
COc1ccc(CN2CCN(Cc3ccccc3F)CC2)cc1OC,nt,4,nt,-1.1,nt,
O=C(CCC(=O)N1CCN(c2ccccn2)CC1)Nc1nnc(C2CCCCC2)s1,-2,0,-10%,-2.8,-9,
COc1ccccc1OCc1ccc(C(=O)NCc2cccnc2)o1,4,-7,0%,1.6,-9,
N#Cc1c(N)oc(-c2ccco2)c1-c1ccco1,1,13,-1%,-7.5,-42,
CC1(C)CC(=O)c2c(oc3ccc(NS(=O)(=O)c4cccc5cccnc45)cc23)C1,12,-1,5%,-0.2,nt,
CCc1ccc2nc3n[nH]c(N)c3cc2c1,5,92,5%,-6.1,9,
O=C(c1cncc(Br)c1)N1CCN(S(=O)(=O)c2ccccc2C(F)(F)F)CC1,nt,-5,nt,-0.3,nt,
CN(CC(=O)Nc1cccc(F)c1)C(=O)CCSc1ccc(F)cc1,nt,-5,nt,0.3,nt,
CC(=O)N/C(=C/c1cccnc1)C(=O)Nc1ccc(Cl)cc1,nt,-1,nt,-2.0,nt,
CCCCc1nnc(NC(=O)c2oc3ccc(OC)cc3c2C)s1,nt,-6,nt,1.4,nt,
CCOc1ccc(N2C(=O)C(Cl)=C(Nc3ccccc3O)C2=O)cc1,-15,98,78%,8.9,-26,
CCc1ccc(N2CC(C(=O)NC3CCCCC3C)CC2=O)cc1 (stereo unspecified),nt,-5,nt,-0.1,nt,
COc1cc(NC(=S)N(C)C)c(OC)cc1Cl,nt,-2,-6%,-0.4,nt,
CC(C)CSc1nc(N2CCOCC2)c2c(c1C#N)CC(C)(C)SC2,-27,13,11%,nt,-31,
